# StopGo reporter: lowers the luciferase signal of an FMDV 2A StopGo reporter. human cells with a luciferase reporter of 2A StopGo recoding; control for the full effect not named in the record. Potency, µM (highest dose often 57.9 µM), for the others: at the top dose signal change, negative = less light. 1.2% of 410,000 active. AID 1159524; active = well fitted falling curve with a large enough effect; inconclusive = small, poorly fitted or top-dose-only effect; inactive = no such curve, though single readings can be large or run the other way; tested in HEK293T cells; further: on the % scale 0 is the no-effect control and ±100 the full control effect; nearly all actives have a fitted effect of over 45% in size; luciferase light after 4 h
# RE007 growth inh: less growth of the S. pombe RE007 Vpr strain; Potency, µM (doses to about 92.2 µM), for the others: top-dose activity change, negative = less growth; AID 651644; S. pombe RE007 Vpr strain, BacTiter-Glo ATP luminescence, 24 h; control for the full effect not named in the record; 0.21% of 360,000 active; active = well fitted falling curve with a large enough effect; inconclusive = small, poorly fitted or top-dose-only effect; inactive = no such curve, though single readings can be large or run the other way;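 further: on the % scale 0 is the no-effect control and ±100 the full control effect; nearly all actives have a fitted effect of over 50% in size; the assay follows cell death caused by Vpr and the record does not say whether a fall means rescue or toxicity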
#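 Fission yeast strain RE007, carrying one chromosomally integrated HIV-1 vpr copy, was seeded at OD 0.01 in PMG+AL medium with 23 nL pinned compound. After 24 h at 30 °C and 99% humidity, viability was read by BacTiter-Glo luminescence.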
# SARS PLpro yeast: blocks SARS-CoV papain-like protease in a yeast assay. S. cerevisiae expressing SARS-CoV PLpro, growth rescue; control for the full effect not named in the record. Potency, µM (titrated, usually from 32.9 µM), inactives show at the top dose activity, positive = growth rescue. 0.19% of 330,000 active. AID 485353; active means well fitted rising curve with a large enough effect; inconclusive means small, poorly fitted or top-dose-only effect; inactive means no such curve, though single readings can be large or run the other way; further: 0% is about no effect; nearly all actives have a fitted effect of over 55% in size; growth read by luminescence after 48 h
# * hit, by the source's call; ? = inconclusive; [ ] = remark or other dose. Potency means the concentration at half of the fitted maximal effect. An excerpt; count on the stated rates, not on these rows.
SMILES,StopGo reporter,RE007 growth inh,SARS PLpro yeast
Fc1ccccc1CSc1nnc(-c2cccnc2)o1,49%[activator],-7%,-10%
Cn1nc(C(=O)Nc2ccc3c(c2)OCCO3)c2ccccc2c1=O,8%,-12%,1%
O=C(CN(CCc1ccccc1)S(=O)(=O)c1ccc(Cl)cc1)N/N=C/c1ccccc1C(=O)O,-18%,1%,0%
O=C(COC(=O)c1ccccc1O)Nc1cccc2ccccc12,-14%,-3%,5%
Cc1cc(O)c(CN2CCN(S(=O)(=O)c3cccs3)CC2)cc1C(C)C,?,3%,-3%
CC(C)NC(=O)Nc1cccc2c1O[C@H](CN(C)S(=O)(=O)c1ccc(F)cc1)[C@@H](C)CN([C@H](C)CO)C2=O,-8%,1%,-6%
CC(C)c1ccc(S(=O)(=O)N2CCN(C(=O)n3ccnc3)CC2)cc1,-20%,7%,-5%
COc1ccc(C(=O)N/C(=C\c2cccc3ccccc23)C(=O)N2CCN(C)CC2)cc1,10%,-11%,1%
c1ccc(C[C@H]2CN=C(Nc3ccccc3)N2CC2CCCCC2)cc1,-14%,-9%,-7%
C=CC[C@@H](Cc1ccc(F)cc1)C(=O)OC[C@@H]1CCCN1C(=O)[C@@H](CC=C)CC(=O)N[C@@H](CO)Cc1ccccc1,?,5%,8%
CCN(C[C@H]1N[C@@](C)(C(=O)OC)[C@H]2C(=O)N(C)C(=O)[C@@H]12)S(=O)(=O)c1ccc(-c2ccccc2)cc1,-33%,33%[18.4 µM],1%
NC(=S)NNC(=O)/C(=C/c1ccc(Br)cc1)NC(=O)c1ccccc1,-6%,8%,4%
CCOc1ccc(/C=N/Nc2nncc(-c3ccccc3)n2)cc1OC,-2%,-12%,2%
Cn1cnnc1SCC(=O)NCCc1ccc(Cl)cc1Cl,9%,0%,1%
Cc1nnc(SC(C)C(=O)Nc2nccs2)s1 (stereo not given),-1%,-13%,3%
C[C@H](CO)N1C[C@H](C)[C@@H](CN(C)S(=O)(=O)c2cccs2)Oc2ccc(NS(=O)(=O)c3ccccc3)cc2C1=O,-3%,-9%,2%
CCOc1ccc(NC(=O)c2c(OC)cccc2OC)cc1,-5%,-18%,5%
Cc1ccccc1NC(=O)COC(=O)c1cc(S(=O)(=O)N2CCOCC2)ccc1C,?,5%,-3%
CC(C)(C)NS(=O)(=O)NC(=O)C1=C(N2CCCC2)COC1=O,7%,-6%,9%
C=C(C)CNc1cc(S(=O)(=O)N2CCOCC2)ccc1Oc1ccccc1,?,-16%,4%
Cc1ccc(C(=O)OCC(=O)NCCN2C(=O)CSC2=O)cc1[N+](=O)[O-],-11%,2%,0%
CCOC(=O)CC[C@H](NC(=O)Cn1cnc2c(NCc3ccccc3)ncnc21)C(=O)OCC,-21%,5%,-1%
O=C(Cc1cccs1)N1CCN(S(=O)(=O)c2ccc(Cl)c(C(F)(F)F)c2)CC1,-30%,27%,6%
CC(=O)c1ccc(NC(=O)c2noc(C(C)C)c2[N+](=O)[O-])cc1,41%[activator],-9%,-5%
CCN(CC(=O)NCc1ccc(F)cc1)C(=O)c1ccc2c(c1)OCO2,-16%,20%,-6%

# Reformatted bar-delimited: 2 of the compounds above
Structure | StopGo reporter | RE007 growth inh | SARS PLpro yeast
COc1ccc(C(=O)N/C(=C\c2cccc3ccccc23)C(=O)N2CCN(C)CC2)cc1 | 10% | -11% | 1%
c1ccc(C[C@H]2CN=C(Nc3ccccc3)N2CC2CCCCC2)cc1 | -14% | -9% | -7%

# The main list resumes with the three entries that preceded the break.
SMILES,StopGo reporter,RE007 growth inh,SARS PLpro yeast
O=C(Cc1cccs1)N1CCN(S(=O)(=O)c2ccc(Cl)c(C(F)(F)F)c2)CC1,-30%,27%,6%
CC(=O)c1ccc(NC(=O)c2noc(C(C)C)c2[N+](=O)[O-])cc1,41%[activator],-9%,-5%
CCN(CC(=O)NCc1ccc(F)cc1)C(=O)c1ccc2c(c1)OCO2,-16%,20%,-6%
O=C(CCNS(=O)(=O)c1ccccc1)NCCSc1ccc(Br)cc1,0%,-1%,-1%
Cc1ccnc(N2CCN(C(=O)CSc3nc4ccccc4nc3N3CCC(C)CC3)CC2)c1,10%,-1%,-5%
COC(=O)C1=C(c2ccc(OC(F)(F)F)cc2)C[C@@H]2CC[C@H]1N2C(=O)NCc1cc(C)oc1C(F)(F)F,?,6%,1%
CC(C)c1cccc(-c2ccc3c(c2)S(=O)(=O)c2cccc(C(=O)NCc4ccco4)c2C3=O)c1,-20%,9%,0%
O=C1Nc2ccccc2S/C1=C/NCc1ccccc1Cl,32%[activator],-7%,-4%
CCN(CC)c1ccc(C(=O)NNC(=O)CN2C(=O)NC(C)(c3ccccc3)C2=O)cc1 (stereo not given),36%[activator],5%,-6%
Nc1nc(-c2cc(Cl)cc(Cl)c2OC(F)F)cs1,-21%,-14%,-6%
CCOc1ccccc1C(=O)OC(C)C(=O)Nc1ccc(S(=O)(=O)N2CCCC2)cc1 (stereo not given),-3%,-18%,-7%
C#CCOCCOCCOCCNc1nc(N2CCN(C(=O)[C@H](CCCN=C(N)N)n3cc(C(N)[C@@H](C)CC)nn3)CC2)nc(N2CCN(C(=O)[C@H](CCCCN)n3cc([C@@H](N)[C@H](C)CC)nn3)CC2)n1 (stereo not given in full),-1%,2%,9%
CSc1ncccc1C(=O)Nc1cccc(S(=O)(=O)N2CCCCCC2)c1,-6%,-8%,0%
Cc1cc(NC(=O)c2cccc(Br)c2)n[nH]1,67%[activator],13%,2%
C[C@H](CO)N1C[C@H](C)[C@@H](CN(C)Cc2ccc(Oc3ccccc3)cc2)Oc2c(NC(=O)C3CC3)cccc2C1=O,-14%,-3%,6%
O=C(NCCC(c1ccccc1)c1ccccc1)c1cnc2sccn2c1=O,-19%,-6%,-1%
CCN(CC(=O)Nc1ccc2c(c1)OCCO2)C(=O)c1ccc([N+](=O)[O-])s1,31%[activator],-7%,1%
CC(=O)N1CCN(S(=O)(=O)c2ccc3c(c2)CC(=O)N3)CC1,2%,-4%,7%
CN1C(=O)[C@@H]2C[C@@]3([C@@]45C[C@H]6C(=O)N(C)[C@@H](Cc7ccccc7)C(=O)N6[C@@H]4Nc4ccccc45)c4ccccc4N[C@H]3N2C(=O)[C@@H]1Cc1ccccc1,-12%,0%,-6%
Cc1cc(NC(=O)CSCC(=O)NC(C)c2ccccc2)no1 (stereo not given),-22%,3%,-2%
COc1ccc(C(=O)CN(CCC(=O)O)S(=O)(=O)c2ccc([N+](=O)[O-])cc2)cc1,2%,0%,0%
CC(OC(=O)c1ccccn1)C(=O)Nc1ccc(C(F)(F)F)cc1 (stereo not given),-10%,5%,-6%
CCOC(=O)[C@@H]1[C@H]2COc3ccc(Br)cc3[C@@H]2N2C(=O)N(c3cccc(Cl)c3)C(=O)[C@@]12C,-22%,-11%,?
CN(C)S(=O)(=O)c1ccc(C(=O)Nc2nnc(-c3cccs3)o2)cc1,32%[activator],-7%,-1%
COCCN(C(=O)c1ccccc1Oc1ccccc1)c1c(N)n(CC(C)C)c(=O)[nH]c1=O,-27%,-4%,9%
CCN(CC)S(=O)(=O)c1ccc(C(=O)NCC2(N3CCOCC3)CCCCC2)cc1,-22%,2%,-1%
COc1ccccc1CCNC(=O)CSc1nnc2ccc(-c3cccnc3)nn12,-8%,-13%,-6%
CC1CN(C(=O)c2cccc(S(=O)(=O)NCc3ccccc3)c2)CC(C)O1 (stereo not given),-6%,-8%,1%

# (list continues)
SMILES,StopGo reporter,RE007 growth inh,SARS PLpro yeast
CN(C)CCCN1C(=O)c2cccc3c(Br)ccc(c23)C1=O,-12%,-12%,-1%
CC[C@H](OC(C)=O)C(C[C@H](C)N(C)C)(c1ccccc1)c1ccccc1,-23%,-9%,1%
Cc1ccc(S(=O)(=O)N2CCC(C(=O)NCc3ccccc3CN3CCCC3)CC2)cc1,-19%,0%,0%
CCN(CC(=O)NCc1cccs1)C(=O)c1ccc(S(=O)(=O)Nc2ccccc2F)cc1,4%,6%,-1%
Cc1ccc(S(=O)(=O)NCC(=O)OC(C)C(=O)NC(=O)NC2CCCCC2)cc1C (stereo not given),-16%,-4%,4%
CCN(CC)CCn1c(SCC(=O)Nc2ccc3c(c2)CCC3)nc2ccccc2c1=O,6%,-10%,1%
O=C(CSc1nnnn1C1CC1)Nc1ccc(S(=O)(=O)N2CCOCC2)cc1,-5%,-16%,1%
CC(C)(C)[C@]1(O)C[C@@H]2OC(=O)C[C@@]23C(=O)O[C@@H]2OC(=O)[C@@H](O)C213 (stereo not given in full),-12%,6%,3%
O=C(COC(=O)c1cc(-c2cccs2)nc2ccccc12)NC1CCS(=O)(=O)C1 (stereo not given),-17%,15%,2%
COc1cc(OC)cc(C(=O)NC(C(=O)Nc2ccc3c(c2)OCO3)C(C)C)c1 (stereo not given),6%,4%,-6%
Cc1ccc(/C([O-])=C(/C(=S)Nc2ccc(SC(F)F)cc2)[n+]2ccccc2)cc1[N+](=O)[O-],-10%,-4%,-5%
COC(=O)C1=C(c2cccc(C#N)c2)C[C@@H]2CC[C@H]1N2C(=O)N1CCc2cc(OC)c(OC)cc2C1,-24%,0%,-2%
CC(C)c1ccc(C2(C)NC(=O)N(CC(=O)NC3CCCC(C)C3C)C2=O)cc1 (stereo not given),?,20%,5%
CC(C)(C)c1ccc(NC(=O)COC(=O)C2CCCC2)cc1,22%,5%,8%
O=C(CN1C(=O)NC2(CCCCCC2)C1=O)N1CCN(c2ccccc2)CC1,-17%,2%,2%
O=C(COC(=O)c1ccc(Br)o1)Nc1ccc(N2CCOCC2)cc1,-5%,1%,3%
CNC(C)Cc1ccccc1 (stereo not given),-12%,-18%,-4%
CC(Sc1nnc(-c2ccco2)n1N)C(=O)NC1CCCCC1C (stereo not given),-11%,13%,-7%
Cc1cccc(OCC(=O)NNC(=O)c2cc(S(=O)(=O)N(C)C)ccc2N2CCCC2)c1,-20%,0%,-4%
O=S(=O)(c1ccc(SCc2cccc(Cl)c2)nc1)N1CCCC1,-15%,0%,-4%
COc1ccc(Br)cc1/C=C/C(=O)NCC(=O)O,-16%,-1%,-1%
Cc1ccc(NC(=O)c2cccc(S(=O)(=O)N3CCCc4ccccc43)c2)nc1,?,-9%,4%
O=C(NNC(=O)c1ccc2ccccc2n1)c1ccc(O)cc1,-7%,6%,4%
COc1ccc(C(=O)COC(=O)c2ccccn2)cc1OC,1%,-15%,0%
Cc1noc(C)c1NC(=O)N(C)C[C@H]1Oc2ccc(NC(=O)Cn3cnnn3)cc2C(=O)N([C@H](C)CO)C[C@@H]1C,-22%,-7%,1%

# The list goes on:
SMILES,StopGo reporter,RE007 growth inh,SARS PLpro yeast
COc1ccc(S(=O)(=O)Nc2cccc3c2O[C@@H](CN(C)Cc2ccc(C(=O)O)cc2)[C@@H](C)CN([C@H](C)CO)C3=O)cc1,-21%,19%,0%
CC1(C)CC2CC(C)(CN2C(=O)COC(=O)c2cccc(O)c2)C1 (stereo not given),13%,-1%,1%
Cc1cccc(NC(=O)c2nc[nH]c2C(=O)N[C@@H](C)c2ccccc2)c1,-14%,7%,-3%
O=C(COc1ccc(-c2ccccc2)cc1)NNC(=O)Nc1ccccc1,15%,-14%,1%
N#Cc1ccc(C(=O)NC(=S)NC2CCCCC2)cc1,36%[activator],-24%,-6%
COc1ccc(N2CCN(C(=O)COC(=O)CNC(=O)c3cccc(OC(F)F)c3)CC2)cc1,-15%,-9%,2%
Cc1ccc(S(=O)(=O)N2CCN(C(=O)COC(=O)c3cccc(Cl)c3)CC2)c(C)c1,-4%,-14%,3%
O=C(C[C@H]1C/C=C\C[C@H](NC(=O)OCC2c3ccccc3-c3ccccc32)C(=O)OC[C@@H]2CCCN2C1=O)N[C@H](CO)Cc1ccccc1,2%,-5%,17%
COc1cc(CCCN2CCNC[C@@H]2C(C)O)cc(OC)c1OC (stereo not given in full),-18%,-13%,-1%
CCOC(=O)[C@@H]1[C@H]2COc3ccccc3[C@@H]2N2C(=O)N(c3cccc(C)c3)C(=O)[C@@]12C,27%,7%,3%
CCC(CO)Oc1cc(NCc2cccc(OC)c2)c2ncn(C(C)C)c2c1 (stereo not given),3%,8%,2%
O=C(COc1ccc(Cl)cc1)N1CCN(Cc2ccc([N+](=O)[O-])cc2)CC1,?,-18%,-7%
CCCN(CC(=O)Nc1ccccc1OC)C(=O)Cn1[nH]c(=O)c2ccccc2c1=O,-15%,2%,0%
CCc1ccc(C(=O)NNC(=O)CN2C(=O)NC3(CCCC3)C2=O)cc1,1%,-8%,2%
C[C@@H]1COC(=O)[C@H](Cc2ccc(F)cc2)C/C=C\C[C@@H](CC(=O)N[C@H](CO)Cc2ccccc2)C(=O)N1,-14%,-10%,-5%

# One compound at a time (already shown). Order of values: StopGo reporter, RE007 growth inh, SARS PLpro yeast
# CCN(CC)CCn1c(SCC(=O)Nc2ccc3c(c2)CCC3)nc2ccccc2c1=O as listed: 6%, -10%, 1%
# Cc1cc(O)c(CN2CCN(S(=O)(=O)c3cccs3)CC2)cc1C(C)C as listed: ?, 3%, -3%
# Cn1cnnc1SCC(=O)NCCc1ccc(Cl)cc1Cl as listed: 9%, 0%, 1%
